Screens: PubChem, several laboratories
E coli growth: blocks Escherichia coli growth. OD600, 23 h; stronger effect = lower value. actives 0.21% (n = 330,000). OD600 absorbance (test concentration not listed);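 active = OD600 absorbance below the run mean of sample wells minus 3.6 SD, in any replicate, cut at about 0.56 in these data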;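 note: stock transfer was 300 nL into about 60 µL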
Beta cell apopt: blocks beta cell apoptosis; INS-1E cytokine-induced death, ATP luminescence, 48 h; percent of positive-control rescue, neutral wells zero; protection from apoptosis, % (no concentration beside the values); actives 0.8% (n = 300,000);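 active = all replicates at 75% or more, or half of them and the mean; inconclusive = half reach 75% but not the mean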;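 note: 0% = cytokine-treated negative control wells and 100% = positive control rescue; higher means more ATP so stronger rescue from cytokine killing; wells of about 40 µL received 100 nL stock; the first replicate is given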
A1 inh: inhibitors of the anti-apoptotic protein A1, read as caspase activation; MEF A1-2A-BIM cells, Caspase-Glo 3/7 luminescence, 3 h; percent of clofoctol response, vehicle zero; caspase activation, % (no concentration beside the values); actives 0.066% (n = 330,000);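 active = over half of replicate activation scores above 10%, or exactly half above 10 with the replicate mean above 10; inconclusive = replicate mean below 10 yet half the replicates above 10; inactive = over half of replicates below 10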;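 note: wells of about 30 µL received 50 nL stock; many hits fall short of the cut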
UCH37 DUB inh: blocks the human deubiquitinase UCH37 | purified proteasome/UCH37, Ub-AMC cleavage fluorescence | actives 0.33% (n = 330,000) | Q9Y5K5 | inhibition, % (test concentration not listed);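 active = mean of two replicates above 20%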;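 note: 0% = compound-free wells with enzyme and 100% = wells lacking proteasome; stock transfer was 100 nL into about 20 µL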
Target sequence (Q9Y5K5 whole entry, looked up): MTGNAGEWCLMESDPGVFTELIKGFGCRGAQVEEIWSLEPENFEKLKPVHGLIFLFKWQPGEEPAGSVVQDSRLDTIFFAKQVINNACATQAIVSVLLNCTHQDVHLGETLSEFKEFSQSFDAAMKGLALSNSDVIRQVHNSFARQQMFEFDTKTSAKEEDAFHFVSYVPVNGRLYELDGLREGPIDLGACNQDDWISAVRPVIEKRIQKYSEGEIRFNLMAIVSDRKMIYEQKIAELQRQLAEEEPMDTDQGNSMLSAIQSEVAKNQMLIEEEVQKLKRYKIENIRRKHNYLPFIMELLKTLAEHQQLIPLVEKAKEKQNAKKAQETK
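Schedule: 30 min plus 25 min, room temperature / Material: human UCH37 within purified proteasomes / Technique: AMC fluorescence intensity at 355/460 nm / Buffer or medium: pH 7.4 Tris-HCl (50 mM) with ovalbumin, ATP-MgCl2, DTT / Controls: wells without proteasome as full block, compound-free enzyme plus substrate as uninhibited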
FGF22 binding: binders of recombinant human FGF22 by thermal shift. Q9HCT0. actives 1.5% (n = 340,000). SYPRO orange fluorescence; percent of sucrose octasulfate shift, DMSO zero. calls only at 9.99 µM;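 active = melting point raised past a set limit in the mean and every replicate; inconclusive = no clear call; three in four hits are not shown here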
Target sequence (Q9HCT0 whole entry, looked up): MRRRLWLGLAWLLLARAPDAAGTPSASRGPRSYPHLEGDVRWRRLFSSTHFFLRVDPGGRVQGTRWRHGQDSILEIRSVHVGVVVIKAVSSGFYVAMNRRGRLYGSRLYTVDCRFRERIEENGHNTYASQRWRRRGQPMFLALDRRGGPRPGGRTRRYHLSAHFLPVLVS
Ecoli rRNA inh: selective bacterial rRNA inhibition in E. coli; E. coli WT GFP vs humanized-ribosome RFP mutants, fluorescence, 24 h; stronger effect = lower value; DMSO median 0, no signal -100; GFP signal change (wild-type ribosome), % (concentration not given with the values); actives 1.6% (n = 350,000); AID 720706;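 active = significant combined selectivity score with lowered wild-type GFP, culture density cut under 30%, mutant RFP and density less affected; inactive = any of these conditions unmet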; note: one replicate is shown; some compounds called inactive have numbers as strong as hits
T cruzi inh: blocks replication of Trypanosoma cruzi | inhibition, % (no concentration beside the values) | AID 1885 | actives 1.4% (n = 300,000) | T. cruzi beta-gal in NIH3T3, luminescence, 90 h;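 active = mean inhibition across valid replicates above about 55%, limit read from the data; inconclusive = mean below that limit but half or more replicates reach it; inactive = mean below it, under half of replicates reach it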;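 note: signal also drops with host cell toxicity which is not excluded here; 0% = plate median of DMSO wells and 100% = zero luminescence signal; higher percent means less beta-gal luminescence so fewer parasites; stock transfer was 50 nL into about 50 µL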
AF4-AF9 inh: MLL-AF4/AF9 protein interaction inhibition. P42568. AlphaScreen, biotin-AF4 peptide binding to FLAG-AF9. inhibition, % at 10 µM. actives 0.47% (n = 350,000). AID 651704;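 active = every replicate reaching a set inhibition limit, whatever the replicate mean, cut at about 25% in these data; inconclusive = mean inhibition reaches that limit but some replicates miss it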;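 note: 0% = plate neutral control median and 100% = total signal loss; the record names both 10 and 1 µM as test concentration; the first replicate is given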
Target sequence (P42568 whole entry, looked up): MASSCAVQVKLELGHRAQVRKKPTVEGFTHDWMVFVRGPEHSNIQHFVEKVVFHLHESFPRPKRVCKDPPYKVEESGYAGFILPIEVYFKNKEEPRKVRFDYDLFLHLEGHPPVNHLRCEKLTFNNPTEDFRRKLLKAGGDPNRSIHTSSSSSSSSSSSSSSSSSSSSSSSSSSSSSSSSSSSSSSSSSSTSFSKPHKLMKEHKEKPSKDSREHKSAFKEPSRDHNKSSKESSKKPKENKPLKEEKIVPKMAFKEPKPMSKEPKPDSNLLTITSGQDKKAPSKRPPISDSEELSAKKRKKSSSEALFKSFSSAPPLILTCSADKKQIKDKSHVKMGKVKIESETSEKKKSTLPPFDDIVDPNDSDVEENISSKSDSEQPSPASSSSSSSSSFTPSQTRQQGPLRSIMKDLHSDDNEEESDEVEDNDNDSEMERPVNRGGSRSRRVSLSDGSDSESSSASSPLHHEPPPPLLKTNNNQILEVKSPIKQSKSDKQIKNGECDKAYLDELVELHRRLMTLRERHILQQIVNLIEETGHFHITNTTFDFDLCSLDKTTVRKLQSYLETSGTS
Ecoli rRNA inh OD600: second read-out of Ecoli rRNA inh, no call of its own (marks repeat the call); OD600 change, %; measured here: OD600 growth;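 optical density of the mix in the first replicate; 0 = DMSO median and -100 = no signal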
Ecoli rRNA inh RFP: also measured in Ecoli rRNA inh; calls as there; RFP signal change, %; measured here: RFP humanized mutant strains;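 first replicate; 0 = DMSO median and -100 = no signal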
Active calls of the source: *; i = inactive; u = inconclusive; x = no result given. Some of the compounds tested (hit frequency here may not be typical).

SMILES	E coli growth	Beta cell apopt	A1 inh	UCH37 DUB inh	FGF22 binding	Ecoli rRNA inh	Ecoli rRNA inh OD600	Ecoli rRNA inh RFP	T cruzi inh	AF4-AF9 inh
Cc1nnc(SCC(=O)Nc2ccc([N+](=O)[O-])cc2)n1CC1CCCO1 (centres undefined)	0.66	-17	0.4	2.1	i	-6	0	-2.5	-11	-1.0
O=C(NN1CCOCC1)c1cccc(Br)c1	0.66	0	2.3	1.5	i	16	12	-0.9	-8	1.4
COc1ccc(OC)c(C(C)NS(=O)(=O)c2cccs2)c1 (centres undefined)	0.7	-1	0.6	3.8	i	2	6	1.5	x	1.1
O=C(NCc1ccco1)c1nc(-c2ccc(F)cc2)no1	0.72	0	-0.2	5.1	i	-4	-7	0.2	-5	-1.3
COc1cc(/C=C2\SC(=S)N(CCC(=O)NCCc3ccccc3)C2=O)cc(OC)c1OC	0.65	-2	-0.2	6.7	i	1	6	0.8	-7	1.0
Cc1ccc(C(O)(C(=O)NNc2ccccn2)c2ccc(C)cc2)cc1	0.69	-2	0.7	3.5	x	-15	-19	-2.0	6	-3.8
O=C(NC(=S)Nc1cccc2cnccc12)c1ccccc1	0.69	-8	0.0	4.0	i	6	10	-10	4	-2.0
O=C(O)CC(Cc1ccc(Cl)cc1)C(=O)Nc1cc(Cl)ccc1Cl (centres undefined)	0.69	-4	0.5	3.8	i	-50	-72	-16	-7	u
Cc1ccc(-n2c(SCC(=O)N/N=C/c3ccccc3C(=O)O)nnc2-c2ccccc2)cc1	x	-5	1.1	x	i	-1	2	-1.8	-1	-0.2
O=Cc1[nH]c2ccccc2c1N(C(=O)CCl)c1ccccc1	0.65	x	x	3.2	i	7	3	5.5	-5	x
CCCCn1c(N)c(N(CCOC)C(=O)COC(=O)CNC(=O)c2ccc(Cl)c(Cl)c2)c(=O)[nH]c1=O	0.67	x	x	3.1	i	0	-1	0.9	x	1.3
COc1ccc(OC)c(NC(=O)COC(=O)c2ccc(-n3cnnn3)cc2)c1	0.7	2	0.0	1.0	x	x	x	x	3	x
CCCC(=O)N1CCN(Cc2nc3cc([N+](=O)[O-])ccc3n2C)CC1	0.66	-1	2.3	6.0	i	9	16	-2.6	14	2.5
CC(NC(=O)c1ccc(N(C)C)cc1)c1ccc(F)cc1 (centres undefined)	0.7	3	-1.2	2.2	i	3	2	-2.8	-17	-0.5
C=CC[C@H](CC(=O)N(CCO)Cc1ccccc1)C(=O)N[C@@H](COC(=O)[C@@H](CC=C)Cc1ccc(F)cc1)Cc1c[nH]c2ccccc12	0.72	-3	0.5	0.7	i	13	9	-0.9	x	-5.4
COc1ccccc1N1CCN(Cc2ccc(Br)o2)CC1	0.71	2	0.0	2.2	x	x	x	x	x	x
NS(=O)(=O)c1ccc(NC(=O)c2cccc(Cl)c2)cc1	0.65	-2	-1.0	0.7	i	-2	-3	-3.8	10	9.5
CC(=O)NN1C(=O)c2ccc(Oc3ccc([N+](=O)[O-])cc3)cc2C1=O	0.66	-4	0.4	3.8	x	x	x	x	-6	x
CC(CC(C)C(=O)Nc1ccccc1C(C)(C)C)C(=O)O (centres undefined)	0.82	-2	0.4	2.1	x	x	x	x	x	x
Cc1ccc(-n2c(N)c(S(=O)(=O)c3ccccc3)c3nc4ccccc4nc32)cc1	0.75	2	0.1	-53	i	-1	1	-1.4	18	-1.1
O=C(NC1CC1)c1sc2cc([N+](=O)[O-])ccc2c1Cl	0.69	12	-0.5	-5.1	x	x	x	x	-3	x
CCCOc1ccc(C(O)(CCN2CCCCC2)c2ccccc2OC)cc1 (centres undefined)	0.6	0	2.3	3.1	i	2	-2	-0.7	6	3.1
Cc1ccc(CNC(=O)C2CC(=O)N(CCC(C)C)C2)cc1 (centres undefined)	0.72	0	-0.4	6.1	i	4	8	4.2	-2	-4.9
COc1ccccc1NC(=O)C(C)OC(=O)CSCC(=O)Nc1cc(C)on1 (centres undefined)	0.68	2	0.6	4.0	i	5	11	-1.6	x	-11
O=C(c1cnn2ccccc12)N1CCCc2ccccc21	0.74	x	-0.7	8.9	i	-1	-4	-6.7	1	-16
COC(=O)c1ccc(NC(=S)N2CCN(Cc3ccccc3)CC2)cc1	0.63	-26	0.8	2.4	x	x	x	x	-25	x
Cc1ccc(Nc2n[nH]c(C)c2[N+](=O)[O-])c(C)c1	0.69	2	-0.1	4.3	i	-8	-8	-4.6	20	-0.2
COc1ccc(NS(=O)(=O)c2ccc3c(c2)NC(=O)CO3)c(OC)c1	0.67	-5	-1.3	3.3	i	4	4	-3.2	-5	1.0
COc1cccc(-c2noc(-c3cccnc3)n2)c1	0.69	-9	-5.3	0.8	x	x	x	x	-4	x
COc1cccc(-n2c(=O)n(Cc3ccccc3)c(=O)c3[nH]cnc32)c1C	0.65	3	0.1	4.4	i	-5	-3	-0.4	-2	-0.9
COc1ccc(NC(=O)CSc2nnc(-c3cc(C)[nH]n3)n2N)cc1	0.64	0	0.0	0.7	i	2	7	-3.0	13	-5.5
O=C(Nc1ccc(CN2CCOCC2)cc1)c1ccco1	0.69	3	-0.3	3.1	i	17	17	1.5	-6	1.7
O=C(Nc1ccc(S(=O)(=O)Nc2ccccn2)cc1)C(F)(F)F	0.65	-1	0.4	-0.6	i	13	5	-2.0	u	-1.6
O=c1oc2ccccc2c2c1ncn2C1CCCCC1	0.72	2	0.4	2.9	x	x	x	x	19	x
COC(=O)CCC(=O)Nc1ccc(NC(=O)CCC(=O)OC)cc1	0.77	-6	0.0	4.7	x	x	x	x	-30	x
Cc1n[nH]c(=S)n(/N=C/c2cccc([N+](=O)[O-])c2)c1=O	x	-6	0.3	x	i	-31	7	-5.5	-22	0.8
O=C(CN1CCCCCC1)NN(Cc1ccccc1)c1ccccc1	0.64	-2	1.6	5.8	i	3	-2	0.2	-2	-2.6
Cc1nc2ncnn2c(C)c1C/C=C/c1ccccc1	0.71	0	0.5	5.0	i	-1	-1	-0.7	3	0.1
Cc1cccc(CC(=O)Nc2ccon2)c1	0.65	5	1.1	0.9	i	10	6	0.1	-9	-13
Cc1ccc(C(=O)CSc2nnnn2Cc2ccccc2)cc1C	0.69	2	-0.6	-1.2	i	-28*	-17*	-0.6*	-1	-8.4
N#CCSc1nnc(N)s1	0.79	x	1.2	2.9	x	x	x	x	-17	x
COc1ccc(Cl)cc1NC(=O)CC1S/C(=N/N=C2CCCCCC2)NC1=O (centres undefined)	0.71	-2	0.7	6.7	i	-15	-52	2.0	-17	-1.5
Cc1ccc2c(C)nc(Nc3nc(CSc4nnc(C)s4)cc(=O)[nH]3)nc2c1	0.77	-3	0.1	4.4	x	x	x	x	4	x
CCCNC(=O)c1cc(-c2ccco2)on1	0.64	33	-0.4	0.9	x	x	x	x	7	x
O=C(OCc1c(-c2ccccc2)ncc2ccccc12)c1ccco1	0.64	-9	0.2	3.8	i	-7	-2	-11	x	-2.0
CN(CC(=O)Nc1ccccc1Br)C(=O)c1cccc(S(=O)(=O)N2CCc3ccccc32)c1	0.69	x	x	-1.3	i	-24	-20	1.6	x	0.2
Cc1cccc(N2CCN(C(=O)CCCCCn3c(=S)[nH]c4ccc(N5CCOCC5)cc4c3=O)CC2)c1C	0.7	31	-0.6	-132	i	8	8	4.2	65*	-4.7
Cc1cccc(C(=O)NCCCNC(=O)c2cccnc2)c1	0.67	x	-0.2	-1.5	i	1	15	0.2	-5	u
CS(=O)(=O)N1N=C(c2ccc(Br)cc2)CC1c1ccc2c(c1)OCO2 (centres undefined)	0.68	5	-3.6	2.0	x	x	x	x	3	x
CC1=C(C(=O)Nc2ccc(C)cc2C)C(c2cccc([N+](=O)[O-])c2)n2nc(C(=O)OC(C)C)nc2N1 (centres undefined)	0.67	-5	0.6	2.1	i	16	15	2.1	7	-0.3
Clc1ccc(CO/N=C/c2cccs2)cc1	x	-18	0.3	x	i	2	-18	-0.7	4	2.5
CC(=O)Nc1ccc(NC(=O)CCNC(=O)c2ccccc2Cl)cc1	0.65	-3	0.1	0.3	i	12	12	1.9	-1	-1.3
Cc1ccccc1OCC(=O)NNC(=O)Nc1ccc(Cl)cc1	0.76	5	-0.5	4.7	x	x	x	x	3	x
CCOC(=O)N1CCN(C(=O)Cc2ccc(Cl)cc2)CC1	0.76	-8	-0.3	0.4	x	x	x	x	3	x
O=C(OCc1cc(=O)n2ccsc2n1)c1ccc(O)cc1O	0.67	0	-4.5	1.3	i	-11	-5	0.9	x	-1.0
Cc1nc(NCCc2ccc(Cl)cc2)c2nnn(Cc3ccccc3)c2n1	0.75	x	0.2	3.7	i	-7	-1	-1.8	0	-4.3
CCN(CC(=O)Nc1ccc(Cl)c(S(=O)(=O)N(C)C)c1)Cc1nc2ccccc2c(=O)[nH]1	0.73	-1	-1.1	-0.5	i	-11	-11	7.4	-6	-0.7
Cc1c(C(=O)Nc2ccccc2C(=O)N2CCOCC2)cccc1[N+](=O)[O-]	0.67	1	-0.3	3.6	x	x	x	x	-6	x
COc1cccc(NC(=O)CN(C)C(=O)CN2C(=O)NC(C)(c3ccc(C)cc3)C2=O)c1 (centres undefined)	0.63	-7	-0.2	2.4	i	3	-6	-0.1	x	-26
Cc1cc(=O)oc2cc(OCC(=O)c3ccc4c(c3)NC(=O)CO4)ccc12	x	1	-0.3	x	x	23	16	-2.7	-20	-2.6

3 entries from above, arranged by number of heavy atoms, highest first.
SMILES	E coli growth	Beta cell apopt	A1 inh	UCH37 DUB inh	FGF22 binding	Ecoli rRNA inh	Ecoli rRNA inh OD600	Ecoli rRNA inh RFP	T cruzi inh	AF4-AF9 inh
COc1cccc(NC(=O)CN(C)C(=O)CN2C(=O)NC(C)(c3ccc(C)cc3)C2=O)c1 (centres undefined)	0.63	-7	-0.2	2.4	i	3	-6	-0.1	x	-26
CS(=O)(=O)N1N=C(c2ccc(Br)cc2)CC1c1ccc2c(c1)OCO2 (centres undefined)	0.68	5	-3.6	2.0	x	x	x	x	3	x
CCCNC(=O)c1cc(-c2ccco2)on1	0.64	33	-0.4	0.9	x	x	x	x	7	x

Further compounds.
SMILES	E coli growth	Beta cell apopt	A1 inh	UCH37 DUB inh	FGF22 binding	Ecoli rRNA inh	Ecoli rRNA inh OD600	Ecoli rRNA inh RFP	T cruzi inh	AF4-AF9 inh
CCCc1oc(C(=O)O)cc1CN1CCCC1	0.69	-2	-0.5	0.7	i	8	4	3.0	-16	4.7
O=C(O)CCC(=O)Nc1ccccc1C(=O)N1CCN(c2ccc(Cl)cc2)CC1	0.62	-3	0.6	-0.2	x	4	-1	-1.0	-17	1.2
Cc1ccc(C)c(C(=O)N2CCN(c3ncccn3)CC2)c1	0.64	1	0.8	-2.6	i	11	12	16	-6	-12
COc1ccccc1C(=O)OCc1c(-c2ccccc2)ncc2ccccc12	0.75	6	-1.3	2.7	i	-25*	-11*	1.8*	x	-5.5
C=CCn1c(-c2cc3c(s2)CCC(CC)C3)n[nH]c1=S (centres undefined)	0.68	1	0.3	-30	i	-38*	-29*	8.0*	7	-1.3
CCOC(=O)c1cc(CC)sc1NC(=O)c1ccc(N2C(=O)CCC2=O)cc1	0.72	0	0.6	-192	i	15	6	1.5	-14	6.7
